RN4220 kill = kills Staphylococcus aureus RN4220. S. aureus RN4220 growth, OD600, 16 h. inhibition, % (concentration not given with the values). 330,000 compounds, 0.33% hits. AID 1259311;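 active = z-score of -3 or lower and OD600 up to 0.18 on both plates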;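 note: plate controls were untreated cells for no effect and reference antibiotic for full effect; stock transfer was 100 nL into about 80 µL; one replicate is shown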
ugtP null kill = growth inhibition of S. aureus ugtP deletion strain; S. aureus RN4220 ugtP deletion, OD600 growth, 16 h; some inactives read as strong as hits; growth inhibition, % (no concentration beside the values); 330,000 compounds, 0.54% hits; AID 1259309;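 active = z-score under -3 and OD600 up to 0.15 on both plates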;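 note: plate controls were untreated wells for no effect and antibiotic for full effect; wells of about 80 µL received 100 nL stock; the first replicate is given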
BJeLR viability = kills HRASV12-expressing BJeLR cells; inhibition, % (concentration not given with the values); BJeLR (HRASV12) viability, CellTiter-Glo ATP luminescence, 48 h; reference of the scale not given here; 300,000 compounds, 0.17% hits; AID 1554;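 active = replicate mean above 50%; inconclusive = above 50% but judged a plate artefact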;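 note: 50 nL library stock added to about 25 µL; numbers are from one replicate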
Bead autofluor = counter-screen for toxin protease inhibitors: compound fluorescence | 360,000 compounds, 3.1% hits | fluorescence intensity (no concentration beside the values) | AID 624483 | compound autofluorescence counterscreen, microsphere flow cytometry; active compounds read high;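 active = at least 3 SD above the mean of all compounds, about 16000 in these data; inconclusive = too few beads counted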;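 note: 100 nL of 1 mM stock went into each well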
Mtb hypoxia inh = inhibitors of hypoxia-regulated fluorescent reporter in Mycobacterium tuberculosis | AID 1159583 | M. tuberculosis hypoxia-regulated fluorescent reporter, fluorescence | fluorescence inhibition, % (no concentration beside the values) | 300,000 compounds, 0.1% hits;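 active = 35 to 45% if threefold the growth effect, above 45% if 1.5-fold the growth effect; inactive = the rest, general growth blockers included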;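 note: wells of about 50 µL received 100 nL stock; 0% = vehicle wells and 100% = reference inhibitor wells; whole bacteria with a GFP reporter of the hypoxia response; strong numbers were not always called active; many hits fall short of the cut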
PrP UTR inh = inhibition of PrP 5' UTR reporter expression. cell-based PrP 5' UTR mRNA reporter, plate reader. inhibition, % (concentration not given with the values). 340,000 compounds, 0.35% hits;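 active = every replicate at 50% or more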;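 note: 0 = median of the neutral control wells; tested in H4 reporter cells; numbers are from one replicate; inactives centre near -14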
Mtb hypoxia inh growth = second read-out of Mtb hypoxia inh, no call of its own (marks repeat the call); growth inhibition, %; measured here: M. tuberculosis growth (absorbance);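 0% = vehicle and 100% = reference antibiotic; read after six days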
* marks the source's active call; other numbers are inactive results; u = inconclusive; x = no result given. Hits appear at their usual frequency. About 4.1% of those tested had a hit in this group.

SMILES	RN4220 kill	ugtP null kill	BJeLR viability	Bead autofluor	Mtb hypoxia inh	Mtb hypoxia inh growth	PrP UTR inh
O=C(c1ccccc1NS(=O)(=O)c1cccc2cccnc12)N1CCOCC1	2.8	-2	14	2571	7	-3	-10
COc1cccc(NC(=O)CC(C)=NNC(=O)C2CCCCC2)c1	1.2	11	x	x	9	-1	x
O=C(Nc1ccccc1)n1cc(-c2ccccn2)c(N2CCOCC2)n1	5.6	-1	0	2535	2	2	-23
CC1CCCC(N2CCN(C(=O)c3cccc(F)c3)CC2)C1 (configuration not stated)	2.3	-4	11	8146	14	10	-5
O=Cc1ccc(O)c2ncccc12	20	15	64*	2975	10	7	12
Cc1nc2sc3c(c2c(=O)[nH]1)CCCC3	2.1	6	-10	4549	2	-6	-3
CC(C)NC(=O)C1CCN(C2CCN(C(=O)/C=C/c3cccs3)CC2)CC1	x	x	-9	3872	x	x	-20
COCc1cc(C)nc(SCC(=O)Nc2cccc(C)c2C)c1C#N	2.9	2	2	10317	5	5	-14
CCCCc1ccc(/C(C)=N/Nc2cc(N3CCOCC3)nc(C)n2)cc1	x	x	-22	4008	x	x	-23
CC(C)c1ccc(S(=O)(=O)N2CCN(CC(=O)Nc3ccc4c(c3)OCO4)CC2)cc1	-0.5	-13	x	2700	x	x	-21
COc1ccc(CN2CCN(c3cccc(C)c3C)CC2)cc1OC	3.8	3	-7	17421*	13	16	0
COc1cc(C(=O)N/N=c2/sc3ccccc3n2C)cc(OC)c1OC	x	x	1	2121	x	x	-19
C=CCn1c(SCc2nc3cc(C(=O)OC)ccc3c(=O)[nH]2)nc2sc(CC)cc2c1=O	7.1	-10	-3	2185	11	11	-15
O=C(Nc1nnc(COc2ccccc2)s1)Nc1ccccc1F	4.6	7	-2	7115	1	-2	-69
CCC(C)C(C(=O)N1CCN(C(=O)OC(C)(C)C)CC1)n1cc(CCC(=O)O)nn1 (configuration not stated)	3.5	-5	x	x	10	2	x
CN(C(=O)c1ccc2c(c1)OCO2)C1(C)CCS(=O)(=O)C1 (configuration not stated)	-1.6	10	9	u	5	-6	-28
O=c1[nH][nH]c(-c2ccccc2)c1-c1ccccc1	6.3	12	x	3226	5	6	-31
COc1ccc(C=NNC(=O)c2cc[n+]([O-])cc2)cc1O	3.7	1	x	x	-6	11	x
CCOC(=O)CCC(=O)NCc1ccc2c(c1)cc(C)n2C	8.3	0	1	18146*	6	10	2
COc1cc(SC#N)ccc1N=Cc1c(C)[nH]n(-c2ccc(C)cc2)c1=O	-1.4	1	16	2146	11	1	-26
O=c1oc(C2(O)CCCCC2)cc2ccc(C=Cc3ccc(F)cc3)cc12	5.5	7	x	x	14	4	x
O=C(CCN1CCN(c2ccccc2)CC1)Nc1ccc(OCc2ccccc2)cc1	5.7	-3	-7	3331	x	x	-1
Cc1cc(C)cc(N(C(=O)c2ccco2)C(C(=O)NC2CCCC2)c2ccncc2)c1 (configuration not stated)	4.1	4	3	2660	2	-5	-9
Cc1ccc(-n2nc(C(=O)O)nc2-c2ccccc2)cc1	-1.3	14	3	9392	x	x	1
COc1cc2cnc(-c3ccccc3)c(-c3ccc(C(F)(F)F)cc3)c2cc1OC	100*	101*	x	3682	-4	12	-14
O=C1OCC/C1=C\c1ccccc1O	2.7	3	-7	4136	2	6	3
CCCn1c(=O)c(C(=O)Nc2ncccc2O)c(O)c2ccccc21	4.9	4	-2	3502	0	8	2
CCC(=O)c1ccc(OCC(O)CN(C)C2CCCCC2)cc1 (configuration not stated)	5.9	6	4	3548	x	x	-12
Clc1ccc(C2=NNC(=NCc3ccc4c(c3)OCO4)SC2)cc1	6.0	-7	x	10837	3	0	7
O=c1[nH]nc(NN=Cc2ccccc2OC(F)F)c(=O)[nH]1	7.2	0	x	x	-5	-3	x

Part of the list above in a different format:
COc1cc(SC#N)ccc1N=Cc1c(C)[nH]n(-c2ccc(C)cc2)c1=O
  RN4220 kill = -1.4; ugtP null kill = 1; BJeLR viability = 16; Bead autofluor = 2146; Mtb hypoxia inh = 11; Mtb hypoxia inh growth = 1; PrP UTR inh = -26

O=c1oc(C2(O)CCCCC2)cc2ccc(C=Cc3ccc(F)cc3)cc12
  RN4220 kill = 5.5; ugtP null kill = 7; BJeLR viability = x; Bead autofluor = x; Mtb hypoxia inh = 14; Mtb hypoxia inh growth = 4; PrP UTR inh = x

O=C(CCN1CCN(c2ccccc2)CC1)Nc1ccc(OCc2ccccc2)cc1
  RN4220 kill = 5.7; ugtP null kill = -3; BJeLR viability = -7; Bead autofluor = 3331; Mtb hypoxia inh = x; Mtb hypoxia inh growth = x; PrP UTR inh = -1

An excerpt of these results, field by field:
O=C(CCN1CCN(c2ccccc2)CC1)Nc1ccc(OCc2ccccc2)cc1
  RN4220 kill = 5.7; ugtP null kill = -3; BJeLR viability = -7; Bead autofluor = 3331; Mtb hypoxia inh = x; Mtb hypoxia inh growth = x; PrP UTR inh = -1
COc1cc2cnc(-c3ccccc3)c(-c3ccc(C(F)(F)F)cc3)c2cc1OC
  RN4220 kill = 100*; ugtP null kill = 101*; BJeLR viability = x; Bead autofluor = 3682; Mtb hypoxia inh = -4; Mtb hypoxia inh growth = 12; PrP UTR inh = -14

Continued.
SMILES	RN4220 kill	ugtP null kill	BJeLR viability	Bead autofluor	Mtb hypoxia inh	Mtb hypoxia inh growth	PrP UTR inh
Cc1ccc(Nc2nnc(SCC3CCCCO3)s2)cc1 (configuration not stated)	6.2	-1	3	8553	4	3	-29
C=CCc1c(C)[nH]c2c(OC)cccc2c1=S	1.9	-26	2	2650	11	8	-16
CCN(CC)C(=O)C1CCCN(Cc2nc(-c3cccs3)no2)C1 (configuration not stated)	3.3	2	8	5153	12	0	-13
COc1ccc(NC(=O)CCC(=O)N2CCC(c3ccccc3)=N2)cc1S(=O)(=O)N1CCCCC1	-0.5	2	x	3707	2	6	9
O=Cc1cn(CCC(=O)O)nc1-c1cccc(Br)c1	1.2	-2	x	4242	7	9	0
CCOC(=O)N1CCC(N2Cc3cccc(C(=O)NC(C)c4ccc5c(c4)OCCO5)c3C2=O)CC1 (configuration not stated)	-0.3	10	2	4542	x	x	-57
O=C(CCN1CCCCCC1)Nc1cccc(Cl)c1	3.0	1	8	9672	7	11	0
O=C(/C=C/c1ccco1)NC(=S)Nc1ccccc1	2.2	93*	1	4152	6	9	-50
COC(=O)/C(=C\c1ccc([N+](=O)[O-])cc1)NC(=O)c1ccccc1	5.3	14	x	2885	19	8	-2
N#CC1=C(N)Oc2cc(O)c(Cl)cc2C1c1cccnc1 (configuration not stated)	4.2	6	-2	x	-18	-7	-3
COC(=O)C(=C/C(C)=C/c1cccs1)C(=O)OC	x	x	2	3323	x	x	-25
CCOCCn1ccc2c(OCC(=O)NCc3ccccc3)cccc2c1=O	-0.9	-1	2	u	-5	6	6
CSC(=C[N+](=O)[O-])Nc1ccc(Cl)cc1	8.1	8	x	x	12	10	x
CCCCN(C(=O)CC1CCCC1)c1c(N)n(CCCC)c(=O)[nH]c1=O	-0.8	-1	x	5177	6	13	-25
CCOc1cc(C(=S)N2CCCC2)ccc1O	0.1	10	2	x	4	-7	-1
COc1ccc(-c2cc(C(=O)N/N=C/c3ccc(OC)c(COCC(F)(F)C(F)F)c3)c3ccccc3n2)c(OC)c1	x	x	-3	4546	x	x	0
CCN1C(=O)/C(=C2\SC(N3CCCCC3)=NC2=O)c2ccccc21	2.4	4	-1	11206	20	10	-64
CCC(=NCC1CCCO1)c1c(O)n(-c2ccc(OC)cc2)c(=O)[nH]c1=O (configuration not stated)	0.2	8	-6	3621	10	2	-6
Cc1ccc2c(c1)nnn2C1CCN(CC(=O)Nc2ccc3c(c2)OCCO3)CC1	-0.5	-2	-3	8830	1	5	-20
COc1cc(SC)ccc1C(=O)NCC1CCCO1 (configuration not stated)	-2.6	1	11	3603	x	x	-11
Cc1cc(C)c(C#N)c(SCc2ccc([N+](=O)[O-])cc2)n1	6.3	15	-3	3252	13	7	-13
CCOC(=O)CNC(=S)n1cnc(N)n1	2.4	3	2	4346	2	2	-6
Cc1ccc(N=Cc2c(O)[nH]c3ccccc23)c([N+](=O)[O-])c1	4.0	-12	3	4485	12	2	-72
CC(=NCc1ccc(F)cc1)c1c(O)n(C)c(=O)n(C)c1=O	4.2	7	0	19909*	10	9	-3
COc1ccc(NN=C(C(C)=O)N2CCCc3ccccc32)cc1	1.7	5	x	x	1	4	x
Cc1cccc(C)c1NC(=O)c1ccc(-n2cnnn2)cc1	3.8	0	-1	9314	0	4	-16
O=C(/C=C/Nc1ccc(Br)cc1F)c1ccco1	7.4	6	15	2310	18	5	42
CC1CC1C(=O)OCC(=O)NC(=O)c1ccccc1 (configuration not stated)	3.4	5	7	u	1	7	-16
Cc1cc(Br)ccc1NC(=O)CNC(=O)COc1ccccc1C	-1.0	-4	-8	4572	2	-7	2
COc1ccccc1NC(=O)C(=O)NCCC1CCCCN1S(=O)(=O)c1cccs1 (configuration not stated)	0.0	0	-4	6155	-8	2	-17
COc1ccc(C2CC(c3ccc4ccccc4c3)=NN2C(=O)COC(=O)C2CCC(=O)N2)cc1 (configuration not stated)	-18	1	23	3330	12	5	-133
COc1c(C=O)cc2c3c1CCCN3CCC2	2.8	1	-10	3363	17	13	-8
Clc1ccc(Sc2ccc(/C=N/n3cnnc3)o2)cc1	x	x	-11	2154	x	x	16
Cc1cccc(C(=O)OCC(=O)c2cccc(Br)c2)c1O	-1.0	5	7	5922	-1	-5	-25
CC1(c2ccccc2)CC(C)(C)N2C(=O)C3(C(C#N)=C(N)Oc4cc(O)ccc43)c3cccc1c32 (configuration not stated)	16	-22	2	8403	0	-5	0
CCOC(=O)CNC(=O)C(Cc1ccccc1)NS(=O)(=O)c1cccs1 (configuration not stated)	1.3	6	x	2892	8	2	-12
Cc1ccc(F)cc1N=Cc1c(O)c2ccccc2oc1=O	3.0	3	-1	4123	-9	3	-17
COc1ccc(N(C(=O)CNS(=O)(=O)c2ccccc2)C(C(=O)NCc2ccco2)C(C)C)cc1 (configuration not stated)	4.3	2	2	4613	6	10	-4
Cc1cc(C)nc(N2C(=O)CC(C(C)c3ccccc3)C2=O)n1 (configuration not stated)	1.3	6	0	4456	4	7	-6
On1c(-c2ccccc2)nc2ccccc21	6.2	1	1	5014	x	x	-24
O=C(Cc1ccc(NC(=O)C2CCCN(C(=O)C3CCC3)C2)cc1)Nc1ccc(C(=O)N2CCOCC2)cc1 (configuration not stated)	5.2	1	x	4146	-9	3	-39
Cc1ccccc1NC(=O)Cn1c(=O)sc2ccccc21	-0.4	1	-2	3155	3	-5	-4
C=CC1c2ccccc2N(S(=O)(=O)c2ccc(C)cc2)C(c2ccc(C(=O)OC)cc2)C1(C#N)C#N (configuration not stated)	11	-20	x	x	10	11	x
Cc1ccccc1-c1nnn(Cc2ccc(F)cc2Cl)n1	3.4	28	0	3692	-1	1	-10
CN1C[C@@H]2C(c3ccccc3)C3(c4cccnc4)CC2(C3)[C@H]1c1ccccc1 (some centres not stated)	x	x	-1	3889	x	x	-17
CCCc1nnc(NC(=S)Nc2ccccc2)s1	-2.9	9	-10	3875	x	x	-31
C=CCn1c(CSc2nc3ccccc3s2)nnc1SCC(=O)NCc1cccnc1	1.1	0	-9	4546	x	x	-10

Exported bar-delimited: entries from further up
smiles | RN4220 kill | ugtP null kill | BJeLR viability | Bead autofluor | Mtb hypoxia inh | Mtb hypoxia inh growth | PrP UTR inh
CCCc1nnc(NC(=S)Nc2ccccc2)s1 | -2.9 | 9 | -10 | 3875 | x | x | -31
CN1C[C@@H]2C(c3ccccc3)C3(c4cccnc4)CC2(C3)[C@H]1c1ccccc1 (some centres not stated) | x | x | -1 | 3889 | x | x | -17
C=CCn1c(CSc2nc3ccccc3s2)nnc1SCC(=O)NCc1cccnc1 | 1.1 | 0 | -9 | 4546 | x | x | -10
COc1ccc(C2CC(c3ccc4ccccc4c3)=NN2C(=O)COC(=O)C2CCC(=O)N2)cc1 (configuration not stated) | -18 | 1 | 23 | 3330 | 12 | 5 | -133
Cc1ccccc1NC(=O)Cn1c(=O)sc2ccccc21 | -0.4 | 1 | -2 | 3155 | 3 | -5 | -4

Screens from PubChem BioAssay.
